# gsp antagonist: antagonizes gsp, the McCune-Albright syndrome mutation. gsp-mutant cells, cAMP HTRF, 30 min; control for the full effect not named in the record. Potency, µM (series often up to 76.9 µM), without a hit: at the highest dose activity change, negative = inhibition, hits mostly inhibitors. 340,000 compounds, 0.4% hits. AID 624288; active = falling curve of any shape with a large fitted effect; inconclusive = falling curve, mostly with a smaller effect; inactive = flat or rising curve; cell line not stated here;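 also: intracellular cAMP measured with PDE inhibitor Ro 20-1724 present during compound exposure; potency is read from the fitted curve at half-maximal effect; % is scaled to controls: 0 for no effect and ±100 for the full control effect; nearly all actives have a fitted effect of over 65% in size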
#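 Cells, 2000/well, grown 16–24 h in DMEM 10% FBS with 0.5 mg/ml G418, then compounds plus […] (300 uM addition stock), 30 min at 37C. cAMP read by HTRF (cAMP-d2 and anti-cAMP antibody-K in lysis buffer) after 30 min RT.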
# Sfp PPTase inh: inhibitors of Bacillus subtilis Sfp phosphopantetheinyl transferase; Q9F4F7; Biochemical Sfp PPTase activity, qHTS; AID 1490; Potency, µM, for the others: max response, negative = inhibition, most hits filed as inhibitors; 310,000 compounds, 3.5% hits; active = well fitted inhibition curve with a large enough effect; inconclusive = small, poorly fitted or top-dose-only effect, or another doubt; inactive = no such curve, though single readings can be large or run the other way;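 also: the enzyme is Sfp with the accession as filed and its product quenches rhodamine fluorescence; potency is read from the fitted curve at half-maximal effect; 0% = enzyme reaction without inhibitor and -100% = no enzyme wells; top concentration of the series not given in the record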
#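 Reaction rates are the 30-min fluorescence difference (ex 525, em 598 nm) in wells containing 15 nM Sfp, 5 uM rhodamine-CoA and 12.5 uM BHQ-2-YbbR at pH 7.6 with 10 mM MgCl2.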
# TRPV1 potentiator: enhances activation of the human vanilloid receptor TRPV1; Q8NER1; TRPV1-expressing cells, Fluo-8 calcium influx, capsaicin EC20 potentiation; host cell line not named in the record; control for the full effect not named in the record; potentiation, % at 8.33 µM; 320,000 compounds, 0.02% hits; AID 540277; active means potentiation above 80%; inconclusive means 30% to 80%; inactive means below 30%; also: 0% is about no effect
# Target sequence (Q8NER1 whole entry, looked up): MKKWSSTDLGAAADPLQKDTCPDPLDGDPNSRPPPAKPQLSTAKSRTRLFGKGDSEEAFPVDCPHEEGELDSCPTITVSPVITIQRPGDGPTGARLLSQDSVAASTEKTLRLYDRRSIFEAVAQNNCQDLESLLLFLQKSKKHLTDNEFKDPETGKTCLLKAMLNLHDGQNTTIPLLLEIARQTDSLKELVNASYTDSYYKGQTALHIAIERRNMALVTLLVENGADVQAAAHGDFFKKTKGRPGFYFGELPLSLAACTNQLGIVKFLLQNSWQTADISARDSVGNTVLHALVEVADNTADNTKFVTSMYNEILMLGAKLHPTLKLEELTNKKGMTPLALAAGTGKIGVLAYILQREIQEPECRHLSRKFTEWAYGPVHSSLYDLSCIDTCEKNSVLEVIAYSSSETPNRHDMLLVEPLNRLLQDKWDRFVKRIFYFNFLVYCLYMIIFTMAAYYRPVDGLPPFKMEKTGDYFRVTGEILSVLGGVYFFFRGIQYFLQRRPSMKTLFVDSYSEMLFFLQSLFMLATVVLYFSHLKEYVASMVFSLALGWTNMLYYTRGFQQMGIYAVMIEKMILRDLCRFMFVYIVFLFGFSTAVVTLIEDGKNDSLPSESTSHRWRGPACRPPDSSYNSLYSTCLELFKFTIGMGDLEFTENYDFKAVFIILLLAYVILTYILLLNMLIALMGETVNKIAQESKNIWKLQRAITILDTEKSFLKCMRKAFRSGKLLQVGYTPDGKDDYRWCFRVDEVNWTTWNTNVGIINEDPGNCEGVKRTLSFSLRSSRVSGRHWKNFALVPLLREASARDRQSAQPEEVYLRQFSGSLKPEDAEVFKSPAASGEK
#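 Cells expressing TRPV1 were dye-loaded with Fluo-8 and read kinetically: 10 s baseline, 3 min after compound (agonist portion), then 2 min after EC20 capsaicin (allosteric enhancer portion). Calcium-bound dye fluorescence at 480/520 nm.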
# CtBP-E1A blk: inhibitors of CtBP/E1A interaction | AlphaScreen GST-E1A/His-CtBP binding, 1536-well; active compounds read low; control for the full effect not named in the record | activity change, % (no concentration beside the values) | 340,000 compounds, 0.49% hits; in the data active means activity change below about -65%; inconclusive means about -30% to -65%; inactive means above about -30%; also: % is scaled to controls: 0 for no effect and ±100 for the full control effect
#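 Protein mix (5X: 125 nM each GST-E1A, His-CtBP) was incubated with pinned compound 2 h at 37 deg C in dark, in 50 mM Tris pH 8.0 buffer with 300 mM NaCl. Glutathione donor and nickel acceptor beads followed; AlphaScreen signal read after 1 h.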
# Menin-MLL FL inh: menin-MLL binding inhibition, fluorescein peptide; Fluorescence polarization, fluorescein-MLL peptide displacement from menin; FP activity change, % at 61.4 µM; 290,000 tested, under 10 active; AID 1766; inconclusive = falling polarisation curve, or a change in total fluorescence; inactive = total fluorescence flat and polarisation flat or rising; no compound was filed as active; the % refers to the polarisation; negative = inhibition;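 also: % of control where 0% means no effect; inhibitors lower the polarisation; unlabelled MLL peptide was the positive control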
# ClpP mod: qHTS Assay for Activators of ClpP. 340,000 compounds, 1.9% hits. purified B. subtilis ClpP, FRET peptide cleavage, 20 min. ATP-dependent Clp protease proteolytic subunit (Bacillus subtilis (strain 168)), P80244. Potency, µM (series often up to 57.5 µM), without a hit: at the top dose activity change, negative = active. AID 651965, 2013; active = well fitted falling curve with a large enough effect; inconclusive = small, poorly fitted or top-dose-only effect; inactive = no such curve, though single readings can be large or run the other way; also: potency is read from the fitted curve at half-maximal effect; the source files actives as falling curves though it sought activators and does not explain the sign; nearly all actives have a fitted effect of over 65% in size; many hits overshoot -100%
# Target sequence (P80244 whole entry, looked up): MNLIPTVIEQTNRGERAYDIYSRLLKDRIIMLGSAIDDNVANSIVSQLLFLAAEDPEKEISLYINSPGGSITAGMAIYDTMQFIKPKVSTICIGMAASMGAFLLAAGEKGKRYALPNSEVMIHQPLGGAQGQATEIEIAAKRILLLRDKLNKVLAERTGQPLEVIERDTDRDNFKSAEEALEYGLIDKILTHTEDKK
#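 Purified B. subtilis ClpP, 10 microg/mL final in Tris/HCl pH8 with KCl, BSA, glycerol and Tween-20, cleaved an Abz/nitrotyrosine-quenched decapeptide. Fluorescence (ex 320, em 430) was read at 0 and 20 min at room temperature. Delta was normalized to 5.8 microM ADEP and DMSO/no-enzyme controls.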
# gsp agonist: agonists of gsp mutant (McCune-Albright syndrome); gsp mutant cells, cAMP HTRF, 30 min; control for the full effect not named in the record; Potency, µM (titrated, usually from 76.9 µM), without a hit: top-dose activation (cAMP increase), most hits filed as activators; 340,000 compounds, 0.13% hits; AID 624287; active = well fitted activation curve with a large enough effect; inconclusive = small, poorly fitted or top-dose-only effect, or another doubt; inactive = no such curve, though single readings can be large or run the other way; cell line not stated here;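 also: phosphodiesterase inhibitor Ro 20-1724 added with compounds to block cAMP breakdown; potency is read from the fitted curve at half-maximal effect; nearly all actives have a fitted effect of over 60% in size; about a fifth of the inactives were tested at one dose only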
#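 Cells in DMEM/10% FBS with G418 were pretreated with compounds in DMSO plus […] (300 uM stock) for 30 min at 37C. cAMP was measured by HTRF (cAMP-d2 plus anti-cAMP antibody-K) after 30 min at room temperature.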
# The depositor's hits bear a star; ? = inconclusive; . = no result given; [ ] = remark or other dose. Hits appear at their usual frequency, and some 5.3% of all compounds hit somewhere here.
# Second line of a record: Menin-MLL FL inh	ClpP mod	CtBP-E1A blk	TRPV1 potentiator	gsp antagonist	gsp agonist	Sfp PPTase inh
> COc1cccc(-c2nc(COc3ccc(Cl)cc3Cl)no2)c1
    0.7	-27.7%	.	7.4	-10.0%	-7.2%	5.2%
> O=C(Nc1ccccc1)C1=C[C@@H](C2CCCCC2)C[C@@H](OCc2ccc(CO)cc2)O1
    0.6	0.2%	1.0	-1.8	6.1%	.	28.0%
> O=C(Nc1ccc(Cl)cc1)Nc1ccccc1CC[N+](=O)[O-]
    3.2	.	1.3	-13.4	10.6%	4.5%[15.4 µM]	-2.9%
> CCOC(=O)c1ccc(NC(=S)NN)cc1
    2.2	.	-16.6	-7.7	-2.0%	10.2%	8.8%
> COc1ccc(Nc2nc(N)nc(CSc3nccn3C)n2)cc1
    6.6	0.0%	.	-7.0	-5.9%	-45.4%[inhibitor]	-12.7%
> C[C@H](NC(=O)c1nc[nH]c1C(=O)NC1CCN(C(=O)OC(C)(C)C)CC1)C(=O)OC(C)(C)C
    -1.2	0.6%	2.1	-11.4	5.1%	.	7.6%
> CCOC(=O)C1CCN(S(=O)(=O)c2ccc3c4c(cccc24)C(=O)N3)CC1
    2.2	4.5%	1.7	.	4.7%	-8.6%	12.0%
> COc1ccccc1NC(=S)N1CCC(C(=O)c2ccc(F)cc2)CC1
    -0.2	2.4%	-9.2	-6.4	-4.0%	-37.0%[inhibitor]	-0.2%
> O=C(NCC1CCCO1)c1cccc(S(=O)(=O)Nc2ccc(SC(F)F)cc2)c1 (stereo not drawn)
    .	-28.9%	-5.0	0.6	-9.6%	-20.4%	.
> NC(=O)c1ncn([C@@H]2O[C@H](CNC(=O)[C@H](N)CSCc3ccccc3)[C@@H](O)[C@H]2O)n1
    .	-0.7%	-0.2	.	10.0%	.	.
> Cc1cc(C)cc(C(=O)OCC(=O)N2CCCCCC2)c1
    .	-0.7%	2.4	-12.9	1.0%	?	.
> N#CC1=C(N)C2=CCCC[C@H]2[C@H](c2cccc(F)c2)C1(C#N)C#N
    ?	6.4%	-11.8	2.9	-7.4%	7.6%	9.6%
> CN1C(=O)C(CCC(=O)O)NC1=S (stereo not drawn)
    0.4	-1.6%	.	0.2	7.9%	-14.3%	5.2%
> O=C(Nc1nnc(-c2ccccc2Cl)o1)c1ccc(S(=O)(=O)N2CCCCCC2)cc1
    0.7	0.0%	-4.8	3.7	?	8.1%	-24.0%
> Cc1cc(/C=N/NC(=O)c2ccsc2)c(C)n1-c1cnccn1
    -0.2	-7.2%	.	-8.2	-6.3%	-29.5%	2.3%
> Cc1cc(C)c(/C=N/NC(=O)c2nnn(-c3nonc3N)c2COc2ccc(F)cc2)c(C)c1
    1.0	-2.0%	-3.6	-9.1	-20.8%	-1.7%[15.4 µM]	?
> O=C(N1CCC(n2nc(-c3ccccc3)oc2=O)CC1)C1(c2ccc(Cl)cc2)CC1
    -7.2	-0.3%	.	-15.1	-28.9%	-1.6%	-9.3%
> CN1C(=O)CC(N2CCN(CC(=O)N3CCCC3)CC2)C1=O (stereo not drawn)
    1.7	-0.1%	13.4	0.2	2.3%	-13.1%	12.9%
> CNC(C)C#Cc1ccc2oc3cccc(OC)c3c(=O)c2c1 (stereo not drawn)
    7.1	3.7%	.	29.3	-1.0%	4.5%	14.5%
> COc1cc(/C=N\NC(=O)c2ccc(-c3ccccc3)cc2)ccc1OCC(N)=O
    -4.8	-6.3%	10.9	-3.8	6.1%	-1.4%[15.4 µM]	-18.9%
> O=C(NCc1cccnc1)c1cc2nc(-c3ccc4c(c3)OCO4)cc(C(F)(F)F)n2n1
    -0.5	-2.8%	-7.0	10.1	7.6%	23.7%	5.9%
> O=C(CSc1nnc(CNC(=O)c2cccs2)o1)Nc1ccc(F)cc1F
    .	1.2%	1.1	-2.6	16.9%	6.5%	19.6%
> Cc1c(CCC(=O)O)c(=O)oc2cc(OCc3cccc(Cl)c3)ccc12
    -1.6	3.8%	-3.8	6.9	-11.1%	-31.3%	4.4%
> NC1(C#Cc2ccc3c(=O)c4ccccc4sc3c2)CCCCC1
    .	-17.3%	-5.0	.	0.8%	-2.7%	.
> Cc1c(-n2c(SCC(=O)NC(C)C)nc3ccccc3c2=O)c(=O)n(-c2ccccc2)n1C
    -4.6	.	-6.3	2.9	-10.2%	0.5%[15.4 µM]	10.3%
> Cc1ccc(C(=O)NC(=S)Nc2ccc(CN3CCOCC3)cc2)cc1
    .	-0.1%	0.9	20.9	-2.8%	-13.1%	11.6%
> CC(=O)N1CCN(c2ccc(NC(=O)c3ccc(Cl)c(Cl)c3)cc2)CC1
    -3.6	.	-3.0	-15.9	?	-23.3%	16.0%
> CCCc1nc2c(C)cc(C)cc2c(N)c1CC
    -1.8	?	-7.6	-7.1	2.8%	1.7%	0.4%
> Cn1c(=O)c2c(nc3n2CC(O)CN3c2ccc(O)cc2)n(C)c1=O (stereo not drawn)
    3.7	.	-4.7	-13.3	-6.8%	-8.9%	4.1%
> COc1ccc(NC(=O)N2CCN(C(=O)c3ccco3)CC2)c(OC)c1
    .	-1.2%	6.7	3.8	-8.3%	0.3%	19.8%
> C=C(C)C1CC=C(C)/C(=N/Nc2ccccc2[N+](=O)[O-])C1 (stereo not drawn)
    1.0	1.3%	-20.9	-0.4	9.7%	0.0%	-10.1%
> COCCn1c(SCC(=O)Nc2ccc(NC(C)=O)cc2)nc2ccccc2c1=O
    -1.2	1.5%	-1.1	0.5	-20.3%	21.8%[15.4 µM]	1.6%
> Cc1cc(NS(=O)(=O)c2ccc(NC(=O)/C=C/c3cccc(Cl)c3)cc2)no1
    .	-0.1%	2.6	-8.9	-15.4%	17.7%	-1.8%
> O=C(O)c1ccccc1C(=O)Nc1ccccn1
    -2.8	-5.9%	0.9	-1.3	1.4%	?	12.7%
> O=C(NN=Cc1cc(Cl)ccc1[N+](=O)[O-])c1ccco1
    .	-1.2%	3.1	.	6.7%	16.6%	.
> O=C(O)c1cccc(CSc2nc(-c3ccc(Cl)cc3)cc(C(F)(F)F)n2)c1
    1.8	-3.6%	-15.0	0.8	?	-6.9%	-6.1%
> Cc1ccccc1CN1CCNC1=O
    -0.7	-1.9%	4.6	-6.7	6.7%	-5.0%	13.2%
> O=c1c2ccccc2ncn1-c1ccc([N+](=O)[O-])cc1Cl
    -0.3	0.1%	-4.5	-15.9	-0.2%	6.8%[15.4 µM]	3.4%
> COc1ccc(CCN(C(=O)C(F)(F)F)C(C(=O)NC2CCCCC2)c2ccc(C)s2)cc1OC (stereo not drawn)
    -1.6	-13.4%	5.5	19.6	2.9%	-21.2%	19.7%
> CCC(C(=O)Nc1cccc(C(=O)O)c1C)c1ccccc1 (stereo not drawn)
    -4.3	.	8.0	-5.0	5.2%	1.4%[15.4 µM]	12.7%
> Cn1c(SCc2ccc(Cl)cc2Cl)nc(C(F)(F)F)cc1=O
    2.9	0.7%	1.3	23.3	9.7%	29.5%	6.6%
> CC1=NN(C(=O)COc2ccccc2)C(O)(c2ccccc2)C1 (stereo not drawn)
    1.7	-1.6%	8.1	25.3	6.3%	19.7%	7.6%
> COc1ccc(CCNC(=O)c2cc(-c3ccc4c(c3)OCO4)on2)cc1OC
    4.0	-7.5%	3.2	6.6	11.1%	-13.0%	20.4%
> O=C(c1ccc2c(c1)OCCO2)N1CCN(c2ccccn2)CC1
    .	-16.1%	-0.1	-12.3	-7.2%	?	8.4%
> COC(=O)C(C)Sc1nc2c(cnn2-c2ccc(C)cc2)c(=O)[nH]1 (stereo not drawn)
    -1.3	-2.4%	-0.8	.	13.0%	-14.1%	3.3%
> O=C(CSc1nc2ccccc2c(=O)[nH]1)N1CCN(c2ccccc2)CC1
    .	-0.9%	18.9	9.1	25.5%	-0.2%[15.4 µM]	6.3%
> CCOC(=O)C1CCN(Cc2ccc(O)c3ncccc23)CC1
    2.2	1.3%	-98.1*	-48.8	-4.4%	20.3%	11.3%
> O=C(CN(c1ccccc1)S(=O)(=O)c1ccc(Cl)cc1)Nc1ccccc1C(=O)N1CCCC1
    5.8	-0.4%	1.7	-5.7	-9.3%	-26.5%	11.3%
> CCn1c(=O)cc(OCC(=O)NCCc2ccc(OC)c(OC)c2)c2ccccc21
    3.4	.	-4.4	-15.7	6.7%	-18.2%[15.4 µM]	17.6%
> CC(C)c1nc(SCC(=O)N2CCCC2)c2ccccc2n1
    1.4	-3.4%	-16.0	-12.8	-16.0%	-1.8%	13.5%

# The list continues.
# Second line of a record: Menin-MLL FL inh	ClpP mod	CtBP-E1A blk	TRPV1 potentiator	gsp antagonist	gsp agonist	Sfp PPTase inh
> COc1ccc(OC)c(NC(=O)c2ccc(N3C(=O)C4CC=C(C)CC4C3=O)cc2)c1 (stereo not drawn)
    -6.0	0.0%	.	-1.2	?	-24.9%	-12.6%
> O=C(Nc1ccncc1)C1COc2ccccc2O1 (stereo not drawn)
    5.9	0.0%	1.6	-22.5	-22.6%	-15.6%	4.9%
> COc1ccc(NS(=O)(=O)c2ccc(NC(=O)Cc3cccs3)cc2)cc1
    2.9	-2.4%	2.2	-18.9	28.9%	4.4%	15.8%
> COc1ccc(C(=O)CC2(C(=O)O)CCCCC2)cc1
    -8.8	3.1%	15.3	29.1	-4.9%	?	9.7%
> NC1=NN=C(N2N=C(c3ccc(Br)cc3)CC2(O)C(F)(F)F)n2ncnc2C1 (stereo not drawn)
    -0.5	-1.1%	-8.3	3.8	5.0%	-10.6%[15.4 µM]	22.5%
> Cc1nnc2sc(SCC(=O)N3CCCCC3)nn2c1=O
    .	0.1%	0.2	1.4	9.5%	28.2µM*	10.3%
> COCCn1c(SCc2cccc(F)c2)nc2cc(C(=O)OC)ccc2c1=O
    3.9	?	0.1	-2.9	-6.3%	?	-25.8%
> COc1ccccc1/C=C/C(=O)NCC(=O)N/N=C/c1ccccc1[N+](=O)[O-]
    0.4	.	-14.8	-3.9	-12.7%	-2.8%[15.4 µM]	5.4%
> COc1cc(O)ccc1C=O
    3.5	-1.9%	.	5.0	1.8%	?	9.7%
